# Screening results deposited in PubChem BioAssay by several laboratories.
# UUG fidelity = modulators of start codon recognition fidelity in yeast. S. cerevisiae UUG-firefly luciferase reporter, luminescence/redox ratio. activity score, % at 18.7 µM. actives 0.13% (n = 350,000). AID 602363;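 active = replicate mean at a twofold rise or more, about +100% in these data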;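 note: firefly luciferase made from a UUG start codon reports start codon fidelity; reporter light over untreated wells divided by growth signal over untreated wells; some hits fall short of that in this replicate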
# PABP polyA inh = blocks human PABP binding to poly(A) RNA; fluorescence polarization; inhibition, % at 35 µM; actives 1% (n = 290,000); AID 2014;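 active = 50% or more with normal probe brightness, or confirmed in later tests; about a fifth of its hits are not listed in these tables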;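 note: calls also rest on retests at 20 µM and on dose response follow-up; controls were probe without protein and protein plus probe with vehicle; some compounds called inactive have numbers as strong as hits; many hits fall short of the cut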
# Rce1 inh = blocks yeast Ras-converting enzyme; AID 2563; calls only; actives 0.27% (n = 290,000); Q03530; yeast membranes, quenched prenylated peptide cleavage fluorescence;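 active = fall in fluorescence gain of 50% or more versus controls, with final raw signal at or below 3038400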;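 note: plate controls were neutral control wells for no effect and wells lacking membranes for full effect; tested at 10 µM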
# Target sequence (Q03530 whole entry, looked up): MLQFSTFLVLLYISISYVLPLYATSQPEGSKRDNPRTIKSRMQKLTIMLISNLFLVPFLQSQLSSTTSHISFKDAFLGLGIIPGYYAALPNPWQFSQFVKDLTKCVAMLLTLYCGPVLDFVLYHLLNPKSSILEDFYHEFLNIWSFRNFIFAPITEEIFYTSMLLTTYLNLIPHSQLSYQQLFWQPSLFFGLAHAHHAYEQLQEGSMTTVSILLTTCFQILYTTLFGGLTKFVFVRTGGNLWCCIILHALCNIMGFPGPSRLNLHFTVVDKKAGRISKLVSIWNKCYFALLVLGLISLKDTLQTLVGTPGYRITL
# eIF4H inh = inhibitors of RNA binding by human eIF4H; Q15056; eIF4H fluorescence polarization binding assay; inhibition, % at 35 µM; actives 0.94% (n = 290,000);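 active = 50% or more with normal probe brightness, or confirmed in later tests; about a fifth of its hits are not listed in these tables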;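 note: calls also rest on retests at 20 µM and on dose response follow-up; 0% = protein and probe with vehicle and 100% = probe without protein; strong numbers were not always called active; many hits fall short of the cut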
# HIV Env fusion = HIV envelope-mediated fusion inhibition; inhibition, % at 12.3 µM; actives 1.1% (n = 360,000); HeLa-JRFL Env/CEM21 cell fusion, luciferase;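 active = mean replicate inhibition score of at least 50 and every replicate individually at or above 50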;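 note: 0% = plate neutral controls and 100% = maraviroc near 300 nM; one replicate is shown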
# CSC inhib = blocks cancer stem cells | inhibition, % at 7.5 µM | cancer stem cell-like cells viability, luminescence | actives 1.1% (n = 300,000);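 active = mean at 75% or more and at least half the replicates too; tested in HMLE shEcad cells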;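 note: 0% = median of negative and 100% = median of positive control wells; the first replicate is given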
# MT1-MMP act inh = inhibitors of human MT1-MMP activation; P50281; HT1080 RFP-PRO-GFP cells, GFP/RFP ratio fluorescence, overnight; percent of plate control window, DMSO zero; GFP/RFP ratio change, % at 20 µM; actives 0.061% (n = 360,000);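 active = GFP/RFP ratio change of at least 30% with cell ATP level not reduced by more than half and red fluorescence within 50% of control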; note: strong numbers were not always called active
#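 Assay system: HT1080 RFP-PRO-GFP cells. Benchmarks: DMSO vehicle wells and RFP-L50D-GFP reporter cell wells. Times: overnight cell settling, then overnight compound exposure, 37 °C, 5% CO2. Compound: 20 µM single dose, 1% DMSO. Read-out basis: GFP/RFP fluorescence ratio.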
# eIF4H inh retest = also measured in eIF4H inh; calls as there; inhibition, %; compound at 20 µM; confirmation average;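 mean of two retest wells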
# PABP polyA inh retest = recorded beside PABP polyA inh, whose call it bears; inhibition, %; compound at 20 µM; confirmation repeats;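 mean of two retest wells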
# MT1-MMP act inh RFP = further read-out of MT1-MMP act inh, marked with its call; RFP signal change, %; measured here: RFP expression control read;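 0 = vehicle wells; hits needed this value within 50% of zero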
# Numbers without * were called inactive; i = inactive; . = no result given. Only part of the results is shown, so the mix of outcomes need not match the whole.
SMILES,UUG fidelity,PABP polyA inh,Rce1 inh,eIF4H inh,HIV Env fusion,CSC inhib,MT1-MMP act inh,MT1-MMP act inh RFP,others
COc1ccc(-c2ncncc2-c2csc(C)n2)c(O)c1OC,.,39,i,10,.,23,0,3,
COCc1ccc(-c2ccc3c(c2)c(C#Cc2ccsc2)c(-c2cc(OC)cc(OC)c2)n3C)cc1,-13,.,.,.,-8,1,0,1,
Cc1cccc2sc(NC(=O)c3ccc(OCC4CCCO4)cc3)nc12 (stereo unspecified),-18,1,i,7,3,-4,-15,-32,
CC(=O)Nc1ccc(-c2csc(NC(=O)CCCc3cccs3)n2)cc1,3,0,i,-8,-69,75*,5,4,
c1ccc(COc2ccc(CNCc3cccnc3)cc2)cc1,-16,8,i,3,5,19,2,-5,
CC(C)Cc1ccc(-c2cc3nc(NCC4CC4)ccn3n2)cc1,-12,.,.,.,-42,.,-1,-6,
CCCC(=O)NC(=S)Nc1ccccc1C(F)(F)F,-7,-1,i,-4,8,-20,3,2,
CC(=O)C[C@@H](O)CC(=O)[C@@H]1OC(=O)CCCCCCCc2ccccc21,-6,.,.,.,5,.,-8,1,
Cc1nc(NC2CCCC2)sc1C(=O)N(C)C,-13,2,i,1,.,-6,1,4,
COc1ccc(OC)c(NC(=O)c2cc3ccccc3cc2OC)c1,-5,0,i,0,-3,4,4,0,
O=C(NCCc1ccccc1)c1ccc(CS(=O)(=O)Cc2ccccc2F)o1,14,-2,i,99,4,.,3,5,eIF4H inh retest=-5;PABP polyA inh retest=5
O=C(NC(NC(=S)Nc1ccccc1Cl)C(Cl)(Cl)Cl)c1cccc(Cl)c1 (stereo unspecified),-24,-9,i,-13,.,111*,-30,-35,
O=C(NCCc1ccccc1)C1CCN(C2CCN(C(=O)CC3=CCCCC3)CC2)CC1,-13,-14,i,-6,-5,9,2,1,
COC(=O)c1cc(NC2c3ccccc3C(=O)N2Cc2ccco2)cc(C(=O)OC)c1 (stereo unspecified),-17,3,.,12,-91,-12,3,2,
COc1cc(NC(=O)c2cccc(Br)c2)nc(OC)n1,.,-1,i,-1,-30,-6,-1,-3,
Cc1cc(=O)c(C(=O)O)nn1-c1ccccc1Cl,12,4,i,-19,-17,-8,4,4,
O=S1CC/C(=N\O)c2ccccc21 (stereo unspecified),-8,-6,i,-6,-80,-6,3,8,
CN(C)S(=O)(=O)c1ccc(C(=O)Nc2ccc(Cl)cc2)cc1,-3,-4,i,-2,1,0,5,-10,
CC(C)(C)N(CC#CCC1(O)c2ccccc2-c2ccccc21)CCO,.,-1,i,8,16,.,-9,1,
Cc1cccc(C)c1NC(=O)COC(=O)c1cccc2c1C(=O)c1ccccc1C2=O,.,-2,i,-1,1,13,-7,-2,
O=C(NC1CCCCC1)c1ccc2ccccc2c1,-9,.,.,.,-65,.,0,2,
CCC(=NCCc1c(C)[nH]c2ccc(OC(F)(F)F)cc12)C1=C(O)CC(c2ccccc2)CC1=O (stereo unspecified),.,-3,i,-13,-43,63,-9,-22,
O=c1c2c(-c3cccs3)csc2ncn1-c1ccc(Br)cc1,2,-2,i,-4,.,2,-10,-2,
CCN(CC)S(=O)(=O)c1cc(NC(=O)c2n[nH]c(=O)c3ccccc23)ccc1C,-9,-4,i,6,-9,-8,-1,-4,
CC1(C)OC(=O)C(=NNc2ccccc2C(=O)O)C(=O)O1,.,-2,i,-10,-15,-7,-3,-1,

# Brought forward from above: five compounds; new compounds follow.
SMILES,UUG fidelity,PABP polyA inh,Rce1 inh,eIF4H inh,HIV Env fusion,CSC inhib,MT1-MMP act inh,MT1-MMP act inh RFP,others
O=C(NC1CCCCC1)c1ccc2ccccc2c1,-9,.,.,.,-65,.,0,2,
CCC(=NCCc1c(C)[nH]c2ccc(OC(F)(F)F)cc12)C1=C(O)CC(c2ccccc2)CC1=O (stereo unspecified),.,-3,i,-13,-43,63,-9,-22,
O=c1c2c(-c3cccs3)csc2ncn1-c1ccc(Br)cc1,2,-2,i,-4,.,2,-10,-2,
CCN(CC)S(=O)(=O)c1cc(NC(=O)c2n[nH]c(=O)c3ccccc23)ccc1C,-9,-4,i,6,-9,-8,-1,-4,
CC1(C)OC(=O)C(=NNc2ccccc2C(=O)O)C(=O)O1,.,-2,i,-10,-15,-7,-3,-1,
COc1ccc(/C=C/C(=O)Nc2cccnc2Cl)cc1,.,-7,i,1,-53,1,6,-2,
Cc1ccc(S(=O)(=O)N2CCOC23CCN(C(=O)c2cc(Cl)ccc2Cl)CC3)cc1,9,-4,i,5,-3,-7,-10,-8,
O=C1C(Nc2ccc(O)cc2)=C/C(=N/S(=O)(=O)c2cccs2)c2ccccc21,.,30,i,4,95*,.,-13,-34,
CCCCN(Cc1ccccc1)C1CCN(Cc2ccccc2)CC1,-22,16,i,-6,0,9,3,1,
Cc1nc(CS(=O)(=O)c2ccccc2)cc(N2CCN(c3ccccc3F)CC2)n1,-16,2,i,3,-3,-7,-1,-4,
COc1ccc(F)cc1S(=O)(=O)NCC(c1ccc2c(c1)OCO2)N1CCN(C)CC1 (stereo unspecified),-19,.,i,.,8,0,-3,2,
CCOc1ccc(-n2cc(C(=O)NCCOC)c3cc(OC)c(OC)cc3c2=O)cc1,9,11,i,4,2,-3,3,3,
COC(/C=C/Nc1ccc(OC)cc1)=C(C#N)C#N,-11,0,i,2,3,-3,3,1,
COc1ccc(-c2nn3c(C4CCCCC4)nnc3s2)cc1OC,-12,-1,i,-6,11,.,-4,0,
CCCc1noc(-c2cccc([N+](=O)[O-])c2)n1,.,-11,i,-6,-1,2,-1,1,
CC(C)(C)NC(=O)NC(=O)CN1CCc2ccccc21,-17,8,i,-1,13,-13,0,0,
CCCCCN(C(=O)COC(=O)COc1c(C)cc(C)cc1C)c1c(N)n(CCCC)c(=O)[nH]c1=O,.,.,i,.,.,-9,-9,-8,
Cc1cccc(OCc2nnc(SCC(=O)Nc3cccc(C(=O)N4CCOCC4)c3)n2C)c1,.,-4,i,-4,4,-15,-2,-3,
O=C1NC2(CCCCCC2)C(=O)N1Cc1ccccc1,-23,11,i,-5,10,2,7,0,
COc1ccc(CC(=O)NNC(=O)CSc2nnc(Cc3ccc(OC)cc3)n2-c2ccccc2)cc1,.,2,i,4,28,-19,2,1,
O=C(CSCc1ccccc1)Nc1cccc(C(=O)Nc2ccc(C(=O)O)cc2)c1,-12,9,i,-3,.,-5,0,4,
Cc1csc(=O)n1CCC(=O)OCC(=O)Nc1cc([N+](=O)[O-])ccc1Cl,-15,.,i,.,2,1,1,-3,
COC(=O)c1cc(-c2c(-c3ccc4c(c3)OCO4)noc2-c2ccsc2)cc([N+](=O)[O-])c1,-17,0,i,3,-9,.,-2,-4,
CCCN(CC(=O)Nc1cc(C)on1)CC(=O)Nc1ccccc1C,-2,.,.,.,-6,-17,1,2,
CC(C)(C)c1ccc(-n2ncc3c2CCCC3NC(=O)c2csnn2)cc1 (stereo unspecified),-15,7,i,-4,-7,25,-4,-7,
Cc1cc2c([nH]c3ccccc32)c(C)n1,-18,1,i,0,-42,-13,3,-2,
Cc1ccc(Cn2c(SCC(=O)NCC3CCCO3)nc3ccsc3c2=O)cc1 (stereo unspecified),.,-6,i,-4,13,0,6,3,
CCOC(=O)c1cc(C)sc1NC(=O)C(c1ccccc1)c1ccccc1,.,-2,.,-1,6,14,-8,-4,
COc1cc2ccccc2cc1C(=O)NC1CCC(C)CC1 (stereo unspecified),-4,.,.,.,.,16,0,-3,
O=C(O)CNC(=O)CCN1C(=O)c2ccccc2C1=O,1,10,i,-15,10,5,4,3,

# In the list so far, three have a tert-butyl group.
SMILES,UUG fidelity,PABP polyA inh,Rce1 inh,eIF4H inh,HIV Env fusion,CSC inhib,MT1-MMP act inh,MT1-MMP act inh RFP,others
CC(C)(C)N(CC#CCC1(O)c2ccccc2-c2ccccc21)CCO,.,-1,i,8,16,.,-9,1,
CC(C)(C)NC(=O)NC(=O)CN1CCc2ccccc21,-17,8,i,-1,13,-13,0,0,
CC(C)(C)c1ccc(-n2ncc3c2CCCC3NC(=O)c2csnn2)cc1 (stereo unspecified),-15,7,i,-4,-7,25,-4,-7,

# Further results:
SMILES,UUG fidelity,PABP polyA inh,Rce1 inh,eIF4H inh,HIV Env fusion,CSC inhib,MT1-MMP act inh,MT1-MMP act inh RFP,others
O=C(CNC(=O)c1ccccc1)OCc1nc2ccccc2s1,.,32,i,6,-363,.,3,7,
CC(C)[C@H](NC(N)=O)C(=O)Nc1ccc(F)c(Cl)c1,.,-2,i,6,-1,-18,-8,-1,
CCOc1ccc(NC(=O)CN2CCN(CC(=O)Nc3ccc(Cl)c(C(F)(F)F)c3)CC2)cc1,-5,-1,i,1,33,.,1,-13,
Cc1nc(N(C)C2CCCCC2)c2nnn(Cc3ccc(F)cc3)c2n1,-7,.,.,.,51,.,3,-10,
Cc1noc(/C=C/N(C)C)c1S(=O)(=O)N1CCC(C(=O)NC(C)(C)C)CC1,-5,5,i,-4,0,6,2,3,
Cc1ccc(/C=C/C(=O)OCC(=O)NCCc2ccc(S(N)(=O)=O)cc2)o1,0,.,.,.,-1,-6,-2,2,
C[C@@H]1C[C@H]2[C@@H]3CCC4=CC(=O)C=C[C@]4(C)[C@@]3(F)[C@@H](O)C[C@]2(C)[C@@]1(O)C(=O)COP(=O)(O)O,-27,4,i,-10,i,12,1,3,
CC(C)CS(=O)(=O)C1=NN2C(=N)/C(=C\c3ccc(OC(=O)c4ccco4)cc3)C(=O)N=C2S1,-13,61*,i,66*,-5,10,-25,0,
Cc1ccc(-c2csc3ncnc(N4CCN(S(=O)(=O)c5ccc(C#N)cc5)CC4)c23)cc1,1,.,.,.,3,.,0,-1,
